Screening results: PubChem BioAssay, several laboratories
eIF4H inh = inhibitors of RNA binding by human eIF4H; inhibition, % at 35 µM; AID 2012; eIF4H fluorescence polarization binding assay; 290,000 tested, 0.94% active;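 active = 50% or more with normal probe brightness, or confirmed in later tests; inconclusive = above 50% with abnormal brightness, or retests that disagree; inactive = below 50% or failed in later tests; about a fifth of its hits are not listed in these tables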;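 also: calls also rest on retests at 20 µM and on dose response follow-up; 0% = protein and probe with vehicle and 100% = probe without protein; strong numbers were not always called active; many hits fall short of the cut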
Env fusion inh = blocks HIV Env-driven cell-cell fusion. HeLa-JRFL Env/CEM21 cell fusion, luciferase. inhibition, % at 12.3 µM. 360,000 tested, 1.1% active. AID 651610;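 active = mean replicate inhibition score of at least 50 and every replicate individually at or above 50; inconclusive = only one of the two criteria met; inactive = mean below 50 and not all replicates reaching 50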;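 also: 0% = plate neutral controls and 100% = maraviroc near 300 nM; one replicate is shown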
Rce1 inhib = yeast Ras-converting enzyme inhibition | yeast membranes, quenched prenylated peptide cleavage fluorescence | calls only | 290,000 tested, 0.27% active | AID 2563;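 active = fall in fluorescence gain of 50% or more versus controls, with final raw signal at or below 3038400; inconclusive = same 50% fall but final raw signal above 3038400; inactive = fall in fluorescence gain under 50%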;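 also: plate controls were neutral control wells for no effect and wells lacking membranes for full effect; tested at 10 µM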
Target sequence (Q03530 whole entry, looked up): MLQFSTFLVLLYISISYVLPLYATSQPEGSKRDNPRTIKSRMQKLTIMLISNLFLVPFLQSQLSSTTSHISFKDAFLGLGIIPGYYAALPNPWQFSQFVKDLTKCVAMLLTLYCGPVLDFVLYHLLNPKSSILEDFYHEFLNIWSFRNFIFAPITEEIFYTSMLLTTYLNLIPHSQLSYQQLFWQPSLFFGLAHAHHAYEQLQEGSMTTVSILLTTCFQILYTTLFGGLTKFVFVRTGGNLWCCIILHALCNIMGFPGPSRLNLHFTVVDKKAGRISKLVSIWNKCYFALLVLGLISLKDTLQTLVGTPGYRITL
CSC inhib = blocks cancer stem cells; AID 2717; 300,000 tested, 1.1% active; cancer stem cell-like cells viability, luminescence; inhibition, % at 7.5 µM;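 active = mean at 75% or more and at least half the replicates too; inconclusive = mean and replicates disagree; tested in HMLE shEcad cells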;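 also: 0% = median of negative and 100% = median of positive control wells; the first replicate is given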
UUG fidelity = alters start codon recognition fidelity in yeast | activity score, % at 18.7 µM | S. cerevisiae UUG-firefly luciferase reporter, luminescence/redox ratio | 350,000 tested, 0.13% active;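 active = replicate mean at a twofold rise or more, about +100% in these data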;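 also: firefly luciferase made from a UUG start codon reports start codon fidelity; reporter light over untreated wells divided by growth signal over untreated wells; some hits fall short of that in this replicate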
MT1-MMP act inh = MT1-MMP (human) activation inhibition; P50281; HT1080 RFP-PRO-GFP cells, GFP/RFP ratio fluorescence, overnight; percent of plate control window, DMSO zero; GFP/RFP ratio change, % at 20 µM; 360,000 tested, 0.061% active; AID 651647;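 active = GFP/RFP ratio change of at least 30% with cell ATP level not reduced by more than half and red fluorescence within 50% of control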; also: strong numbers were not always called active
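Material – HT1080 RFP-PRO-GFP cells · Control set – DMSO wells and RFP-L50D-GFP cells · Incubation – overnight cell settling, then overnight compound exposure, 37 °C, 5% CO2 · Compound dosing – single-point 20 µM compound, 1% DMSO · Read-out – GFP/RFP fluorescence ratio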
PABP FP inh = blocks human PABP binding to poly(A) RNA; P11940; fluorescence polarization; inhibition, % at 35 µM; 290,000 tested, 1% active; AID 2014;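 active = 50% or more with normal probe brightness, or confirmed in later tests; inconclusive = above 50% with abnormal brightness, or retests that disagree; inactive = below 50% or failed in later tests; about a fifth of its hits are not listed in these tables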;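 also: calls also rest on retests at 20 µM and on dose response follow-up; controls were probe without protein and protein plus probe with vehicle; some compounds called inactive have numbers as strong as hits; many hits fall short of the cut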
Target sequence (P11940 whole entry, looked up): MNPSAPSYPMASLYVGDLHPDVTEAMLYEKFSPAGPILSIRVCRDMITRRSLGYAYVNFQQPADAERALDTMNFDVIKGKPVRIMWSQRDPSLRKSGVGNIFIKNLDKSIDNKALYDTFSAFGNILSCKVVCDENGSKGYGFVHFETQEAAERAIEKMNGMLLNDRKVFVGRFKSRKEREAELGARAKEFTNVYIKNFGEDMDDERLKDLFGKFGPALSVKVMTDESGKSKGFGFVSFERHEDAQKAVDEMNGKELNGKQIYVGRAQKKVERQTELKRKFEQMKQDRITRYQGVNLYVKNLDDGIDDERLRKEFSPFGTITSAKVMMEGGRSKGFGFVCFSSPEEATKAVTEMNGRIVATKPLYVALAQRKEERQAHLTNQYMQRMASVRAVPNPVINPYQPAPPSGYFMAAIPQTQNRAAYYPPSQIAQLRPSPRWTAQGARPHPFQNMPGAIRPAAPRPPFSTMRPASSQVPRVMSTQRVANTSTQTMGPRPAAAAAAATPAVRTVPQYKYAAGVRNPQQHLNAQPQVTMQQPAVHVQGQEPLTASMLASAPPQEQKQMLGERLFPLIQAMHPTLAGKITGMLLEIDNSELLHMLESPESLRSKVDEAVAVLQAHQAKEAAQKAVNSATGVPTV
MT1-MMP act inh RFP = recorded beside MT1-MMP act inh, whose call it bears; RFP signal change, %; measured here: RFP expression control read;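 0 = vehicle wells; hits needed this value within 50% of zero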
Active calls of the source: *; i = inactive; u = inconclusive; x = not tested or not shown. Rows were taken by chance; any-hit rate near 3%.

SMILES | eIF4H inh | Env fusion inh | Rce1 inhib | CSC inhib | UUG fidelity | MT1-MMP act inh | MT1-MMP act inh RFP | PABP FP inh
O=C(c1cccc(S(=O)(=O)NCc2ccccc2)c1)N1CCCCC1 | x | -18.5 | i | -5.9 | -19.9 | 5.8 | 1.4 | x
COC(=O)c1ccc(C(=O)OC)c(NC(=O)/C=C/C(=O)O)c1 | -2.7 | 5.4 | i | -18.7 | -13.3 | 0.4 | -3.0 | -2.4
CCc1ccc(N2CC(C(=O)OCC(=O)Nc3ccc(C#N)cc3)CC2=O)cc1 (stereo not drawn) | x | 3.3 | x | 2.8 | -0.1 | -2.7 | 1.1 | x
S=c1[nH]nc(CSCc2ccccc2Cl)n1-c1ccccc1 | -6.8 | 9.1 | i | -8.5 | -26.9 | 1.2 | 2.3 | -3.0
Cc1cc2ccccn2c1C(=O)c1ccc(Cl)c([N+](=O)[O-])c1 | -6.4 | 8.9 | i | -13.6 | x | x | x | -11.6
CCCc1cc(=O)[nH]c(SCC(=O)c2cc(C)n(C(C)COC)c2C)n1 (stereo not drawn) | x | -0.5 | i | 3.3 | -13.2 | 5.3 | 5.2 | x
Cc1ccc(C(=O)N2CCCC2)cc1S(=O)(=O)Nc1ccccc1 | 4.0 | x | i | -2.7 | -3.7 | 0.4 | 3.1 | -2.0
COCCCNC(=O)CCC(=O)NNc1nc2ccccc2c2nc(C)nn12 | -7.6 | 8.4 | i | -9.1 | -7.8 | -2.1 | -1.7 | 6.9
COc1ccc(-n2nc3c(N4CCC(C(=O)NCCc5ccccc5C)CC4)nnc(C)c3c2C)cc1 | -13.7 | x | i | u | -6.0 | 4.4 | 2.2 | -3.3
CC(=O)Nc1ccc(NC(=O)C2CC(=O)Nc3nc4ccccc4n32)cc1 (stereo not drawn) | 14.0 | -2.8 | i | -13.3 | -12.4 | 0.9 | 2.6 | 8.1
CC1(C)Oc2ccc3ccc(=O)oc3c2/C(=C/NNC(N)=S)C1=O | 3.2 | -17.1 | i | 4.3 | -27.0 | 1.0 | 6.2 | -12.7
O=C(O)CSCC(=O)N1CCN(Cc2ccc3c(c2)OCO3)CC1 | -7.5 | x | i | 1.2 | -15.1 | -1.9 | 3.0 | -0.2
Cc1sccc1/C=N/NC(=O)c1ccco1 | -8.1 | 0.0 | i | 1.8 | 0.1 | 3.6 | 5.0 | 0.4
CN1CCN(c2ncnc3c2cnn3-c2ccc(Cl)cc2)CC1 | -2.6 | 3.2 | i | 39.1 | -48.0 | 0.8 | 0.3 | -1.8
COc1ccc(Nc2ccc(N3C(=O)CCC3=O)cc2[N+](=O)[O-])cn1 | -3.0 | -7.2 | i | -7.8 | -16.4 | 5.2 | 2.3 | 2.3
Cn1cccc1-c1cc(C(=O)N/N=C/c2ccc(F)cc2)[nH]n1 | -9.7 | 10.3 | i | x | -23.3 | 0.8 | 2.8 | 0.1
COc1ccc(-c2ccc3c(c2)[C@@H]2C[C@H](N(C)C(=O)C(C)(C)C)[C@H]([C@H](C)O)C(=O)N2CC3)cc1 | x | -46.8 | x | x | 6.4 | -2.4 | -3.1 | x
COC(=O)c1c(C)oc(C)c1S(=O)(=O)N1CCOCC1 | -5.9 | -9.7 | i | -4.2 | -20.2 | 0.3 | 4.8 | 13.1
CCn1cc(CNC(=O)/C=C/c2cnn(C)c2)c(C)n1 | -5.2 | 10.8 | i | -26.2 | x | 1.7 | 3.4 | -0.6
CCOc1cc(/C=C2\SC(=NC)N(C)C2=O)cc(Cl)c1OC(C)=O | 0.9 | 2.3 | i | 16.8 | -11.8 | -44.2 | -2.5 | -2.5

Only Rce1 inhib, for some of the entries so far:
Structure,Rce1 inhib
Cc1sccc1/C=N/NC(=O)c1ccco1,i
CN1CCN(c2ncnc3c2cnn3-c2ccc(Cl)cc2)CC1,i

(more compounds)
SMILES | eIF4H inh | Env fusion inh | Rce1 inhib | CSC inhib | UUG fidelity | MT1-MMP act inh | MT1-MMP act inh RFP | PABP FP inh
O=C(COc1ccc(-n2cnnn2)cc1)NC1CCCCC1 | 3.6 | -15.6 | i | 5.0 | x | -0.2 | 4.8 | -5.4
CCc1cc2c(Nc3ccc(O)cc3)nc(C)nc2s1 | -1.1 | -64.3 | i | 8.7 | -18.2 | 4.3 | -7.2 | 14.1
Cc1ccc(NC(=S)N2CCCCCC2)cc1 | -0.3 | -16.1 | i | -15.8 | x | 2.8 | 1.6 | 3.7
CC(C)C(=O)Nc1ccccc1N1CCN(S(C)(=O)=O)CC1 | -1.1 | 8.4 | i | -8.0 | -8.2 | 6.2 | -1.8 | -8.9
CSc1ccccc1NC(=O)CN(C)CC(=O)Nc1ccccc1F | 6.2 | 9.2 | i | 0.3 | -19.8 | 1.8 | 3.8 | -1.2
CSc1nnc(C)c(/C=C/NOCc2ccc(Cl)cc2)n1 | 0.2 | 7.9 | x | -7.7 | -10.6 | -4.8 | -1.9 | 0.2
O=C(OCC(=O)N1CCc2ccccc21)[C@@H]1CC(O)CN1S(=O)(=O)c1ccccc1[N+](=O)[O-] (stereo partly drawn) | x | 2.1 | x | -16.2 | -6.1 | -0.3 | -2.4 | x
COc1ccc(N(CC(=O)NCc2ccc3c(c2)OCO3)S(C)(=O)=O)cc1OC | 3.8 | x | i | -19.3 | -13.5 | -0.2 | 4.1 | -4.4
O=C(CSc1nnnn1C1CCCC1)Nc1ccccc1N1CCOCC1 | 5.9 | -0.2 | i | -14.7 | x | -2.2 | 0.4 | 0.5
COc1cc(C(NC=O)C(=O)Nc2c(C)cccc2C)ccc1O (stereo not drawn) | -9.3 | 5.8 | i | 2.3 | -7.6 | 2.0 | -1.2 | -4.5
N#Cc1ccc(Oc2cccnc2)cc1C#N | -2.2 | 12.5 | i | 1.4 | -13.9 | -4.1 | -2.8 | 2.1
O=C(CCc1nc2ccccc2c(=O)[nH]1)N1CCN(S(=O)(=O)c2ccc(Cl)c(C(F)(F)F)c2)CC1 | x | 16.6 | i | -8.2 | -4.3 | 4.1 | -0.3 | x
CSCC[C@H](NC(=O)OC(C)(C)C)C(=O)N/N=C/c1ccc2nccnc2c1 | -5.4 | 7.2 | i | -6.0 | -9.5 | -3.2 | 3.2 | 1.3
O=C(c1cccc(C(F)(F)F)c1)N1CCC(O)(CS(=O)(=O)Cc2ccccc2Cl)CC1 | 7.9 | -6.3 | i | -9.2 | 35.9 | 0.8 | -2.9 | -5.2
O=C(NCc1ccc(Cl)cc1)c1cc(=O)[nH]c2ccccc12 | 9.6 | -0.1 | i | -6.3 | -11.8 | 1.4 | 2.8 | 5.2
CC1CCc2cc(F)ccc2N1C(=O)c1cccnc1 (stereo not drawn) | -3.3 | 1.2 | i | x | -21.1 | 3.1 | 1.0 | 8.4
COC(C(=O)Nc1ccc(F)cc1F)c1ccccc1 (stereo not drawn) | -0.7 | -22.7 | i | -13.4 | -8.7 | 11.4 | 7.8 | -6.3
COC(=O)c1ccc(C(=O)OC)c(NC(=O)COC(=O)C2CC2C)c1 (stereo not drawn) | -21.4 | x | i | x | -28.7 | 2.9 | 1.2 | -3.0
Cc1sc2ccccc2[n+]1CCC(C)S(=O)(=O)[O-] (stereo not drawn) | -6.5 | x | i | -9.5 | -6.0 | 1.5 | 3.9 | -6.4
O=C(Cn1c(=O)oc2ccccc21)Nc1ccc(S(=O)(=O)N2CCCCC2)cc1 | 2.6 | -32.9 | i | 0.7 | -4.0 | 3.2 | 0.1 | -1.5
O=[N+]([O-])c1ccccc1S(=O)(=O)Nc1cccc(-c2ccc(N3CCOCC3)nn2)c1 | x | -14.8 | i | 7.1 | -22.9 | 5.6 | 0.1 | x
COc1ccc(C(=O)NCCc2cccc(Cl)c2)cc1OC1CCN(C(C)=O)CC1 | -3.5 | -5.6 | i | 24.7 | -5.1 | -2.4 | -4.2 | -1.8
Cc1cc[n+](CC(=O)Nc2nc3ccccc3s2)cc1 | 0.6 | 11.7 | i | x | x | -2.6 | -0.2 | 3.6
Cc1c(N2C(=O)C(=O)/C(=C(/O)c3ccccc3)C2c2ccc(F)cc2)c(=O)n(-c2ccccc2)n1C (stereo not drawn) | 4.9 | x | i | -10.6 | 8.0 | -0.1 | 3.3 | -10.8
CCNS(=O)(=O)c1c(C)cc(C)c(N(C)S(=O)(=O)c2ccccc2)c1C | 0.3 | -10.6 | i | -3.6 | x | 1.5 | -1.3 | 1.0
Cn1cc([N+](=O)[O-])c(C(=O)Nc2ccn(C34CC5CC(CC(C5)C3)C4)n2)n1 | -17.6 | 8.6 | i | -0.5 | x | 3.6 | -2.2 | -8.4
COc1ccc(OCc2cccc(C(=O)O)c2)cc1 | -8.7 | x | i | 38.9 | x | 6.9 | 5.2 | 19.0
Cc1ccnc(NC(=O)c2c(-c3ccccc3Cl)noc2C)c1 | 3.7 | -54.2 | i | -12.1 | x | -2.5 | -0.8 | -14.3
CC(C(=O)O)n1c(-c2ccn[nH]2)n[nH]c1=S (stereo not drawn) | 0.7 | 2.0 | i | -4.6 | -23.1 | 6.7 | 8.1 | -5.1
COc1ccccc1NC(=O)CSc1nc(=O)n(CCN2CCOCC2)c2c1CCC2 | x | -5.1 | i | 6.9 | 8.0 | 1.1 | -0.7 | x
CCn1c(=S)sc2c(=O)n(CC(=O)Nc3ccc(Cl)cc3)c(C)nc21 | -1.1 | 1.0 | i | 22.6 | -27.2 | 1.7 | -0.2 | -15.6
COc1ccc(S(=O)(=O)N(C)CC(=O)NCCCN2CCOCC2)cc1C | x | -0.1 | x | x | -7.2 | -11.4 | 0.8 | x
CC1(C)C(=O)Nc2ccccc2N1C(=O)CSc1nnc2c(Cl)cc(Cl)cn12 | -2.5 | -18.2 | i | 5.9 | x | 3.7 | 4.9 | 6.3
COc1ccccc1CCC(=O)Nc1ccc2c(c1)c(=O)n(C)n2Cc1cccc(C(F)(F)F)c1 | x | 14.5 | x | x | -33.2 | -8.8 | -9.8 | x
Cc1ccc(C)c2[nH]c(=O)c(C(c3nnnn3C(C)(C)C)N3CC=C(c4ccc(F)cc4)CC3)cc12 (stereo not drawn) | 8.5 | 6.8 | x | x | x | -47.8 | -32.2 | 4.7
CC(C)Cc1cc(C(=O)N2CCC(N3CCC(C(=O)N4CCCC4)CC3)CC2)n[nH]1 | -8.4 | 16.0 | i | -5.7 | 1.4 | -2.6 | -0.2 | 7.8
O=C(COc1ccc2c(C(F)(F)F)cc(=O)oc2c1)Nc1ccc2c(c1)OCCO2 | -6.2 | -14.2 | i | -0.4 | -18.0 | -0.1 | -4.6 | 8.1
O=C(C(Cc1ccccc1)N1C(=O)C2C3C=CC(C3)C2C1=O)N1CCCCCC1 (stereo not drawn) | -9.7 | 46.8 | i | 2.4 | -7.3 | -4.2 | 1.2 | -4.3
CC(=O)Nc1ccc(S(=O)(=O)NC(C)(C#N)C2CC2)cc1 (stereo not drawn) | 20.3 | -19.9 | x | -4.4 | -6.4 | -0.8 | 3.0 | 3.9
O=[N+]([O-])c1cccc(OCc2cn3cccnc3n2)c1 | -9.7 | 1.8 | i | 9.6 | x | -0.7 | -6.6 | -2.8
CCOC(=O)C1(CCc2ccccc2)CCN(C(=O)C2=C(C)OCCO2)CC1 | -12.2 | 9.5 | i | 1.5 | x | 1.4 | 0.6 | -4.8
O=C(CSc1nc2ccccc2c(=O)n1-c1ccc(F)cc1)Nc1ccc(C(=O)O)cc1 | 0.0 | 0.5 | i | 2.7 | -8.1 | -0.6 | -1.2 | -4.0
